# Bioassay records (PubChem BioAssay)
# Yeast UUG start: yeast start codon fidelity modulation; S. cerevisiae UUG-firefly luciferase reporter, luminescence/redox ratio; activity score, % at 18.7 µM; 350,000 tested, 0.13% active;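 active = replicate mean at a twofold rise or more, about +100% in these data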;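 also: firefly luciferase made from a UUG start codon reports start codon fidelity; reporter light over untreated wells divided by growth signal over untreated wells; some hits fall short of that in this replicate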
# PABP FP inh: blocks human PABP binding to poly(A) RNA; P11940; fluorescence polarization; inhibition, % at 35 µM; 290,000 tested, 1% active; AID 2014;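 active = 50% or more with normal probe brightness, or confirmed in later tests; inconclusive = above 50% with abnormal brightness, or retests that disagree; inactive = below 50% or failed in later tests; about a fifth of its hits are not listed in these tables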;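 also: calls also rest on retests at 20 µM and on dose response follow-up; controls were probe without protein and protein plus probe with vehicle; some compounds called inactive have numbers as strong as hits; many hits fall short of the cut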
# Target sequence (P11940 whole entry, looked up): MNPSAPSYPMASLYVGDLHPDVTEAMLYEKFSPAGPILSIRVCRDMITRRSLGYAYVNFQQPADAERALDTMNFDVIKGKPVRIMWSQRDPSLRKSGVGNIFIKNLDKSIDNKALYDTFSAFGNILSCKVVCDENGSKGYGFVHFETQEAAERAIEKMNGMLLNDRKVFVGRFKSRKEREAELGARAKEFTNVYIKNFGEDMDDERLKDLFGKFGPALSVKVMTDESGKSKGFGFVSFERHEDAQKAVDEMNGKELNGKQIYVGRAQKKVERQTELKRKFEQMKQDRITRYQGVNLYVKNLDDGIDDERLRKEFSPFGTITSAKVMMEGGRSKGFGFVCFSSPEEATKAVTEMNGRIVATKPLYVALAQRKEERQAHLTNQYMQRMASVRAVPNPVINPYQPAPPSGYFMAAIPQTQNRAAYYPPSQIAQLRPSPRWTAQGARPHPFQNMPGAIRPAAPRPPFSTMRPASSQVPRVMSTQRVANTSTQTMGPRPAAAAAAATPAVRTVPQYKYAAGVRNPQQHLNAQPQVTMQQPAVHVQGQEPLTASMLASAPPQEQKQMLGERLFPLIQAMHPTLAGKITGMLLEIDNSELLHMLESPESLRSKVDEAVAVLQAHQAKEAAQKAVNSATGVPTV
# CSC inhib: cancer stem cell inhibition | inhibition, % at 7.5 µM | 300,000 tested, 1.1% active | AID 2717 | cancer stem cell-like cells viability, luminescence;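 active = mean at 75% or more and at least half the replicates too; inconclusive = mean and replicates disagree; tested in HMLE shEcad cells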;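 also: 0% = median of negative and 100% = median of positive control wells; the first replicate is given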
# Env fusion inh: blocks HIV Env-driven cell-cell fusion; HeLa-JRFL Env/CEM21 cell fusion, luciferase; inhibition, % at 12.3 µM; 360,000 tested, 1.1% active; AID 651610;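 active = mean replicate inhibition score of at least 50 and every replicate individually at or above 50; inconclusive = only one of the two criteria met; inactive = mean below 50 and not all replicates reaching 50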;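 also: 0% = plate neutral controls and 100% = maraviroc near 300 nM; one replicate is shown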
# Rce1 inh: blocks yeast Ras-converting enzyme | yeast membranes, quenched prenylated peptide cleavage fluorescence | calls only | 290,000 tested, 0.27% active | AID 2563;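 active = fall in fluorescence gain of 50% or more versus controls, with final raw signal at or below 3038400; inconclusive = same 50% fall but final raw signal above 3038400; inactive = fall in fluorescence gain under 50%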;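 also: plate controls were neutral control wells for no effect and wells lacking membranes for full effect; tested at 10 µM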
# Target sequence (Q03530 whole entry, looked up): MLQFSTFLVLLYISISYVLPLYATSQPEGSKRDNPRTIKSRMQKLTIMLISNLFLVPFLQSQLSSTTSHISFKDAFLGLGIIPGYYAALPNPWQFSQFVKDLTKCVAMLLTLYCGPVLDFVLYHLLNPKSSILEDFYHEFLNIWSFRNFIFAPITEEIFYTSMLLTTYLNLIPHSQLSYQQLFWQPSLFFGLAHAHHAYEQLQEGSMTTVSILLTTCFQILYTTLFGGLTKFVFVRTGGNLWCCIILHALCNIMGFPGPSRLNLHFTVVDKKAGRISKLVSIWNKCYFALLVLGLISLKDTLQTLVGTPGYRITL
# MT1-MMP act inh: inhibitors of human MT1-MMP activation; GFP/RFP ratio change, % at 20 µM; AID 651647; 360,000 tested, 0.061% active; P50281; HT1080 RFP-PRO-GFP cells, GFP/RFP ratio fluorescence, overnight; percent of plate control window, DMSO zero;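 active = GFP/RFP ratio change of at least 30% with cell ATP level not reduced by more than half and red fluorescence within 50% of control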; also: strong numbers were not always called active
#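 Assay system: RFP-PRO-GFP reporter HT1080 cells; read-out basis: GFP/RFP fluorescence ratio; benchmarks: DMSO wells and RFP-L50D-GFP cells; doses: 20 µM single dose, 1% DMSO; schedule: overnight cell settling, then overnight compound exposure, 37 °C, 5% CO2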
# eIF4H FP inh: inhibitors of RNA binding by human eIF4H | AID 2012 | eIF4H fluorescence polarization binding assay | 290,000 tested, 0.94% active | inhibition, % at 35 µM | Q15056;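 active = 50% or more with normal probe brightness, or confirmed in later tests; inconclusive = above 50% with abnormal brightness, or retests that disagree; inactive = below 50% or failed in later tests; about a fifth of its hits are not listed in these tables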;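 also: calls also rest on retests at 20 µM and on dose response follow-up; 0% = protein and probe with vehicle and 100% = probe without protein; strong numbers were not always called active; many hits fall short of the cut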
# MT1-MMP act inh RFP: also measured in MT1-MMP act inh; calls as there; RFP signal change, %; measured here: RFP expression control read;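 0 = vehicle wells; hits needed this value within 50% of zero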
# Numbers without * were called inactive; i = inactive; ? = inconclusive; nt = no result given; & = joins results of further samples.
Structure | Yeast UUG start | PABP FP inh | CSC inhib | Env fusion inh | Rce1 inh | MT1-MMP act inh | MT1-MMP act inh RFP | eIF4H FP inh
CCC(=O)NC(C)C(c1cccs1)N1CCN(Cc2ccccc2)CC1 (stereo not drawn) | 2 | -12 | -8 | nt | i | 1 | 3 | -8
COc1ccccc1-c1nnc(NC(=O)C(C)SC2=NCCS2)s1 (stereo not drawn) | -10 | -2 | 10 | i | i | -6 | -7 | -6
COc1ccc(-c2nnc(COc3ccc4ccccc4c3)o2)cc1OC | -5 | 2 | 1 | 0 | i | 5 | -2 | -8
COc1ccc(NS(=O)(=O)c2ccc(C)c(C(=O)N(C)CCc3ccc(OC)c(OC)c3)c2)cc1 | -1 | nt | 4 | 28 | i | -8 | -15 | nt
O=C(CCCc1ccccc1)c1ccccc1 | -11 | -2 | -13 | -105 | i | -2 | -1 | -2
COc1ccc(CC2(CO)CCN(CC3=Cc4cc(Cl)ccc4OC3)CC2)cc1 | nt | -16 | -2 | 15 | i | 0 | -24 | -9
N#CC1=C(N)Oc2cc(O)ccc2C1c1ccncc1 (stereo not drawn) | -24 | 0 | 3 | nt | i | -61 | 3 | -8
CCOC(=O)c1nc(NCc2cccc(OC)c2)c2ccccc2n1 | nt | -14 | 6 | 10 | i | -7 | -1 | -3
Cn1c(SCC(=O)N2CCN(C(=O)c3ccco3)CC2)nnc1-c1ccc(NS(C)(=O)=O)cc1 | -9 | 0 | -16 | -63 | i | 7 | 4 | 0
Clc1ccc(/C=C/c2ncc3ccccn23)cc1 | nt | 8 | -3 | -46 | i | -9 | 1 | 22
O=C(Cn1nnc(-c2ccccc2)n1)Nc1ccc2c(c1)OCO2 | -19 | 2 | 2 | nt | i | 1 | -1 | -1
Cc1ccccc1CN1CCN(Cc2ccccc2C(F)(F)F)CC1 | -17 | 9 | 14 | 8 | i | -6 | 1 | 2

# Entries of single compounds, looked up by structure.
# `N#CC1=C(N)Oc2cc(O)ccc2C1c1ccncc1` (stereo not drawn) is listed as Yeast UUG start = -24; PABP FP inh = 0; CSC inhib = 3; Env fusion inh = nt; Rce1 inh = i; MT1-MMP act inh = -61; MT1-MMP act inh RFP = 3; eIF4H FP inh = -8
# `COc1ccccc1-c1nnc(NC(=O)C(C)SC2=NCCS2)s1` (stereo not drawn) is listed as Yeast UUG start = -10; PABP FP inh = -2; CSC inhib = 10; Env fusion inh = i; Rce1 inh = i; MT1-MMP act inh = -6; MT1-MMP act inh RFP = -7; eIF4H FP inh = -6

# Continuation.
Structure | Yeast UUG start | PABP FP inh | CSC inhib | Env fusion inh | Rce1 inh | MT1-MMP act inh | MT1-MMP act inh RFP | eIF4H FP inh
O=c1[nH]c2cc3c(cc2cc1CN(CCc1ccccc1)Cc1nnnn1C1CCCC1)OCCO3 | nt | 62* | nt | nt | i | nt | nt | 97*
C=CC[C@@H](Cc1ccc(F)cc1)C(=O)OC[C@@H]1CCCN1C(=O)[C@H](CC=C)CC(=O)N(CCO)Cc1ccccc1 | 34 | nt | -3 | -30 | nt | 2 | -14 | nt
Cc1cc(C)nc(N2CCCC(C(=O)NCCC3=CCCCC3)C2)n1 (stereo not drawn) | 5 | 3 | -11 | -31 | i | 6 | 1 | -9
CC(=O)c1cccc(NC(=S)Nc2ccc(F)cc2)c1 | -14 | 10 | -9 | -8 | i | 8 | 7 | 3
CC1CC(C)CN(CCCNC(=O)Cc2c(C(=O)O)[nH]c3ccccc23)C1 (stereo not drawn) | -9 | 3 | 0 | -6 | i | 0 | 2 | 3
CC1CCc2nc(NC(=O)c3cc(C(C)(C)C)nn3C)sc2C1 (stereo not drawn) | -13 | -4 | 7 | -5 | i | -37 | -32 | 1
CC1(C(=O)NS(=O)(=O)c2ccc(F)cc2F)CCN1C(=O)CC(c1ccccc1)c1ccccc1 (stereo not drawn) | -6 | nt | nt | -7 | nt | -4 | 3 | nt
CC(C)(C)c1ccc(C(=O)NCCCNC(=O)c2cccnc2)cc1 | -8 | -6 | 7 | 2 | i | 6 | 8 | -24
CCOc1ccccc1N1CCN(Cc2ccc(Br)s2)CC1 | nt | 7 | 5 | -63 | i | 1 | 3 | -4
CC(N)c1csc(NC(=O)c2cc(C(C)(C)C)nn2Cc2ccccc2)n1 (stereo not drawn) | 1 | nt | nt | -85 | nt | -2 | 0 | nt
COc1ccc(C(=O)OCC(=O)N2CCc3ccccc3C2)cc1OC | -11 | nt | -3 | -32 | nt | -2 | -1 | nt
CN(Cc1ccccc1)S(=O)(=O)c1ccc(N2CCOCC2)nc1 | -11 | -2 | -3 | 9 | i | 4 | -5 | -4
CCc1c(O)nc(SCC(=O)Nc2ccccc2C)[nH]c1=O | -15 | -9 | -7 | -15 | nt | 2 | 2 | -11
O=C(COC(=O)c1cccc(F)c1)NC1CC1 | nt | 21 | -6 | 5 | i | -6 | -3 | -2
O=C(CCCCCCN1C(=O)c2ccccc2C1=O)NC1CCCCC1 | 5 | 7 | -14 | -3 | i | 3 | 1 | -3
COc1cc(S(=O)(=O)N2CCOCC2)ccc1NC(=O)CSc1nnc(N)s1 | -18 | -5 | -4 | nt | i | -3 | 1 | 2
CNc1cccc(-c2ccc(N3CCN(C)CC3)nc2)n1 | -19 | nt | nt | -3 | nt | 8 | 3 | nt
CCOc1ccc(CN2C(=O)c3ccccc3C2=O)cc1C(=O)O | -12 | 7 | -5 | -4 | i | 4 | 7 | -7
CCCCNC(=O)NS(=O)(=O)c1ccc(NS(=O)(=O)c2ccccc2)cc1 | 1 | -2 | -10 | -53 | i | -3 | -4 | -2
COc1ccc(OC)c(C2C(C(C)=O)=C(C)Nc3ncnn32)c1 (stereo not drawn) | -1 | -1 | -11 | 15 | i | 0 | 0 | 0
Cc1cc(CC(C)C)n(-c2nc3ccccc3c(=O)n2OCc2ccccc2)n1 | -1 | 2 | nt | -30 | i | nt | nt | 3
COc1ccc(C)cc1S(=O)(=O)N1CCC(C(=O)N2CCOCC2)CC1 | -4 | 0 | nt | -17 | i | 5 | 2 | -8
CCc1ccc(NC(=O)NCc2ccccn2)cc1 | -19 | -16 | 3 | -18 | i | 2 | -1 | -3
Cc1ccc(S(=O)(=O)NCCC(=O)N2CCN(S(=O)(=O)c3cccc(F)c3)CC2)cc1C | nt | nt | -5 | -3 | i | -2 | 1 | nt
O=C(O)CCC(=O)N1N=C(c2ccco2)CC1c1ccco1 (stereo not drawn) | -4 | 25 | -14 | 4 | i | -2 | 0 | 35
CC(C)(C)n1nnnc1C(c1cccc(C(F)(F)F)c1)N1CCOCC1 (stereo not drawn) | nt | -9 | -6 | nt | i | -3 | 2 | -23
CN(C)S(=O)(=O)c1cccc(NC(=O)CN2C(=O)C3C4C=CC(C4)C3C2=O)c1 (stereo not drawn) | nt | -7 | -12 | 5 | i | 2 | 7 | -8
CCOC(=O)NC(=O)CSc1ccc2ccccc2n1 | nt | 19 | nt | 5 | i | 0 | 2 | -2
COc1ccc(CCNC(=O)C2CCCN(C(=O)c3ccc(Cl)cc3)C2)cc1 (stereo not drawn) | 6 | 2 | -1 | 16 | i | -4 | -2 | 1
N#Cc1cn(CC(=O)O)c2ccccc12 | -20 | -4 | 25 | -16 | i | -3 | 5 | -5
O=C(CCCc1ccccc1)Nc1nccs1 | nt | nt | -2 | -19 | i | -1 | -3 | nt
Cc1nc(-c2cccc(NC(=O)Cc3ccccc3)c2)cs1 | nt | 5 | -15 | -8 | i | 0 | -2 | 4
COc1ccc(C(CNC(=O)c2cccc(S(=O)(=O)Nc3ccc(F)cc3)c2)N2CCOCC2)cc1 (stereo not drawn) | -16 | nt | nt | 12 | nt | -5 | -5 | nt
COc1ccc(NC(=O)CCCCn2c(=O)[nH]c3ccccc3c2=O)cc1 | -5 | -9 | -3 | 5 | i | 3 | -3 | -12
Cc1ccc(CCNS(=O)(=O)c2cnc[nH]2)cc1 | -15 | 4 | 22 | -58 | i | -2 | -5 | -2
C[C@@H]1CCCCO[C@H](CN(C)Cc2ccc(C(F)(F)F)cc2)[C@H](C)CN([C@@H](C)CO)C(=O)c2cc(NC(=O)Cc3ccccc3)ccc2O1 | 14&6 | nt | nt | -98 | nt | -4 | -11 | nt

# Further results
Compound	Yeast UUG start	PABP FP inh	CSC inhib	Env fusion inh	Rce1 inh	MT1-MMP act inh	MT1-MMP act inh RFP	eIF4H FP inh
CCN(CC)CCCC(C)NC(=O)c1cc(=O)c2ccccc2o1 (stereo not drawn)	nt	?	-5	4	i	1	5	-9
O=C(C[C@H]1C/C=C/CC[C@@H](Cc2ccc(F)cc2)C(=O)O[C@@H](c2ccccc2)CNC1=O)NCCO	4	nt	15	4	nt	-1	1	nt
CCN(C(=O)C1CSC2(C)CCC(=O)N12)c1nc2c(C)cccc2s1 (stereo not drawn)	-1	nt	-2	14	i	3	-3	nt
CCNC(=O)COC(=O)c1cc(S(=O)(=O)N2CCCc3ccccc32)ccc1Cl	nt	-2	4	6	i	1	4	-5
CCC(C)n1cnc2c(=O)oc3ccccc3c21 (stereo not drawn)	-21	-6	-5	nt	i	nt	nt	1
COc1ccc(C(=O)Nc2ccc3ccccc3n2)c(OC)c1OC	-31	1	-2	-85	i	3	-2	-2
O=C(CSc1nc(O)c(C2CCCCC2)c(=O)[nH]1)Nc1ccc(F)cc1	0	-7	12	19	i	4	0	2
Cc1cccnc1NC(=O)c1ccc2c(c1)NC(=O)C(C)S2 (stereo not drawn)	1	nt	-8	-2	i	-1	-1	nt
O=C(O)COc1ccccc1Cc1ccccc1	4	11	17	nt	i	-2	7	2
COc1ccc(NC(=O)N2CCN(C(=O)Nc3ccc(OC)cc3)CC2)cc1	11	-6	5	-8	i	3	4	4
CNC(=S)N(CCc1c(C)[nH]c2ccc(C)cc12)Cc1cccnc1	-12	-7	2	-14	i	1	1	-14
CCCN(CCC)c1nc(Cl)nc(NCc2ccco2)n1	-13	5	-1	-21	i	-6	-14	-3
CCOC(=O)CCC(NC(=O)CCCCCCCC(=O)NC(CCC(=O)OCC)C(=O)OCC)C(=O)OCC (stereo not drawn)	nt	10	-8	-5	i	0	0	-10
O=C(O)CCNS(=O)(=O)c1ccc(Oc2ccccc2)cc1	0	-12	-2	0	i	0	2	-1
COc1ccccc1C(CNC(=O)C(CCSC)NC(=O)c1ccccc1Cl)N1CCCC1 (stereo not drawn)	-14	nt	nt	-4	nt	0	3	nt
CCOC(=O)C(C)NC(=O)CCc1nnc2ccc(N3CCC(C)CC3)nn12 (stereo not drawn)	-10	2	-8	4	i	7	2	2

# Given with two lines to a compound: 6 of the compounds above.
# The line under a structure holds: Yeast UUG start	PABP FP inh	CSC inhib	Env fusion inh	Rce1 inh	MT1-MMP act inh	MT1-MMP act inh RFP	eIF4H FP inh
- COc1ccccc1C(CNC(=O)C(CCSC)NC(=O)c1ccccc1Cl)N1CCCC1 (stereo not drawn)
    -14	nt	nt	-4	nt	0	3	nt
- N#Cc1cn(CC(=O)O)c2ccccc12
    -20	-4	25	-16	i	-3	5	-5
- Cc1cc(CC(C)C)n(-c2nc3ccccc3c(=O)n2OCc2ccccc2)n1
    -1	2	nt	-30	i	nt	nt	3
- O=C(CCCc1ccccc1)c1ccccc1
    -11	-2	-13	-105	i	-2	-1	-2
- CC(=O)c1cccc(NC(=S)Nc2ccc(F)cc2)c1
    -14	10	-9	-8	i	8	7	3
- COc1cc(S(=O)(=O)N2CCOCC2)ccc1NC(=O)CSc1nnc(N)s1
    -18	-5	-4	nt	i	-3	1	2
